# VDR inhibitor: blocks the human vitamin D receptor | hit rate 0.93% among 400,000 | VDR-SRC2-3 peptide fluorescence polarization, 2 h | Potency, µM, for the others: max response, negative = inhibition, usual class: inhibitors; active means well fitted inhibition curve with a large enough effect; inconclusive means small, poorly fitted or top-dose-only effect, or another doubt; inactive means no such curve, though single readings can be large or run the other way; further: series mostly up to about 120 µM
# Target sequence (P11473 whole entry, looked up): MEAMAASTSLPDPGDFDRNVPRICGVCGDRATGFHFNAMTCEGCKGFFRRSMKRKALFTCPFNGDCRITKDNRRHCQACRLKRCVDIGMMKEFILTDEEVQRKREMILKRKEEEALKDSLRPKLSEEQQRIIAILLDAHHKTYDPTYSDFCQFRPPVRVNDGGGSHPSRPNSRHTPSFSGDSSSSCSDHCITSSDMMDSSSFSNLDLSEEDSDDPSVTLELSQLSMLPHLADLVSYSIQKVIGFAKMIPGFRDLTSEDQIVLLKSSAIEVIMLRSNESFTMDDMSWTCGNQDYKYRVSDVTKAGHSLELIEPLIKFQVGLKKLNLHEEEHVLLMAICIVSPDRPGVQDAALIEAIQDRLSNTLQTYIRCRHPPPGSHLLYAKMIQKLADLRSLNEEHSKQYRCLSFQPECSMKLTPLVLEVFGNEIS
#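 Measured by FP: displacement of SRC2-3 coactivator peptide from VDR by library compounds, following a two-hour ambient incubation.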
# Starred values were filed as active, the others as inactive; ? = inconclusive; & = joins results of further samples; [ ] = remark or other dose. On the % scale 0 is the no-effect control and ±100 the full control effect; potency means the concentration at half of the fitted maximal effect. Only part of the results is shown (hit frequency here may not be typical).
SMILES,VDR inhibitor
CCOc1ccccc1NC(=O)NC1(C(=O)NCc2cccnc2)CCCCC1,7%
CCn1c(C(=O)NCc2cccc(Br)c2)cc2oc3ccccc3c21,-16%
NS(=O)(=O)c1ccc(NC(=O)COC(=O)c2ccc([N+](=O)[O-])s2)cc1,-5%
CC(=O)c1cccn1S(=O)(=O)c1ccccc1,-8%
COc1ccc(S(=O)(=O)N2CCN(C(=O)c3oc4ccccc4c3C)CC2)cc1,3%
Cc1ccc(-n2nnnc2SCC(=O)N2CCCCC2)cc1,-16%
COc1ccc(NC(=O)NCCn2nnc3cc(S(=O)(=O)N(C)C)ccc32)cc1,3%
COc1cccc(C2c3c(oc4ccccc4c3=O)C(=O)N2Cc2ccco2)c1 (stereo not given),11%
O=c1oc2cc(O)ccc2cc1-c1ccc(F)cc1,-20%
Cc1ccc(C2CC(=O)NC(SCC(=O)OCc3ccccc3)=C2C#N)o1 (stereo not given),6%

# 7 entries drawn at random from the list so far, as already listed:
SMILES,VDR inhibitor
NS(=O)(=O)c1ccc(NC(=O)COC(=O)c2ccc([N+](=O)[O-])s2)cc1,-5%
Cc1ccc(C2CC(=O)NC(SCC(=O)OCc3ccccc3)=C2C#N)o1 (stereo not given),6%
COc1cccc(C2c3c(oc4ccccc4c3=O)C(=O)N2Cc2ccco2)c1 (stereo not given),11%
COc1ccc(NC(=O)NCCn2nnc3cc(S(=O)(=O)N(C)C)ccc32)cc1,3%
O=c1oc2cc(O)ccc2cc1-c1ccc(F)cc1,-20%
COc1ccc(S(=O)(=O)N2CCN(C(=O)c3oc4ccccc4c3C)CC2)cc1,3%
Cc1ccc(-n2nnnc2SCC(=O)N2CCCCC2)cc1,-16%

# Following part
SMILES,VDR inhibitor
CCOc1ccccc1CNC(=O)C1CCN(C(=O)N2CC(CC)Oc3ccc(C)cc32)CC1 (stereo not given),14%
CNC(=O)COc1ccc(S(=O)(=O)N2CCCC2)cc1,50µM*
CCC(C)NC(=O)Cc1c(OC)ccc2cc(Br)ccc12 (stereo not given),2%
O=C(Oc1ccc2c3c(c(=O)oc2c1)CCCC3)c1cccs1,43%[activator]
C[C@H](O)Cc1cc2ccccc2c(=O)o1,-27%
COc1ccccc1-c1ccc(NC2CCCC2)nn1,6%
Cn1c(SCC(=O)N2CCCC2=O)nnc1-c1ccccc1F,18%
Cn1cnnc1Sc1ccc(/C=C(\CCC(=O)O)c2nc3ccccc3s2)cc1[N+](=O)[O-],-13%
O=C(Nc1ccc(N2CCOCC2)c(Cl)c1)c1c(F)c(F)c(F)c(F)c1F,-11%
COc1ccc2[nH]cc(CCNc3ncncc3-c3cccc(NS(C)(=O)=O)c3)c2c1,-9%
CCOC(=O)c1cccc(NC(=S)NCc2ccc(C)cc2)c1,9%
COc1ccccc1NC(=O)Nc1nc(CC(=O)NC2CCCC2)cs1,-2%
O=C(O)CCNC(=O)COc1ccc2c3c(c(=O)oc2c1)CCCC3,-10%
Cc1cc(C(=O)CSc2nnc(-c3cccnc3)n2-c2ccccc2)c(C)n1CC1CCCO1 (stereo not given),8%
CC(=O)c1cc2c(cc1NC(=O)CCc1c(C)nc3ncnn3c1C)OCO2,-10%
C=CCOc1ccc(/C=N/Nc2ccccn2)cc1OC,?
CSc1nnc(-c2cccn(Cc3cccc(Cl)c3)c2=O)o1,-12%
COc1ccc2c(c1)C(=O)[C@@H](OC(=O)NS(=O)(=O)c1ccc(C)cc1)[C@H](c1ccc(OC)c(Br)c1)O2,3%
CCn1c(CC(=O)Nc2cccc(Cl)c2Cl)nnc1SCCOc1ccc(OC)cc1,5%
Cc1ccccc1CC(=O)c1ccc(O)c(C)c1O,5%

# For convenience, some entries already given.
SMILES,VDR inhibitor
COc1ccccc1NC(=O)Nc1nc(CC(=O)NC2CCCC2)cs1,-2%
O=C(O)CCNC(=O)COc1ccc2c3c(c(=O)oc2c1)CCCC3,-10%
Cc1cc(C(=O)CSc2nnc(-c3cccnc3)n2-c2ccccc2)c(C)n1CC1CCCO1 (stereo not given),8%

# 3 compounds already listed, ordered by heavy-atom count, smallest number first.
SMILES,VDR inhibitor
Cc1ccccc1CC(=O)c1ccc(O)c(C)c1O,5%
C=CCOc1ccc(/C=N/Nc2ccccn2)cc1OC,?
CCOC(=O)c1cccc(NC(=S)NCc2ccc(C)cc2)c1,9%

# Additional structures follow.
SMILES,VDR inhibitor
O=C(NCCCn1ccnc1)/C(=C\c1cccnc1)NC(=O)c1ccccc1F,-20%
Cc1nc(SC(C(=O)c2ccccc2)c2ccccc2)nc2ccccc12 (stereo not given),-14%
CCN1CCN(CCC(=O)Nc2cc(OC)ccc2OC)CC1,-12%
COc1ccc(CC(=O)N/N=C(\C)c2cccnc2)cc1,3%
CCOC(=O)C1=C(C)N=C2SC(C(=O)OC)=CC(=O)N2C1c1cc(OC)c(OC)c(OC)c1 (stereo not given),-28%
COc1ccc(CCN2C(=O)CC(N3CCN(S(=O)(=O)c4ccccc4)CC3)C2=O)cc1 (stereo not given),2%
Cc1ccc(-c2cc(C(F)F)n3ncc(C(=O)NCc4ccco4)c3n2)cc1,4%
O=C(Cn1nc(-c2ccccc2)c2cnc3ccccc3c21)Nc1ccccc1,5%
CC(C)CNC(=O)C1CC(=O)OC12CCCCC2 (stereo not given),-9%
CCCCOP(=O)(OCCCC)C(O)c1ccc(F)cc1 (stereo not given),6%
N#CC(C#N)=C1SC(=Nc2ccccc2)C(=Nc2ccccc2)N1c1ccccc1,?
CC1CCN(C(=O)CSc2nnc3c(n2)[nH]c2ccccc23)CC1,0%
Cc1cc(C)c2nc(-c3ccco3)cc(C(=O)O)c2c1,?
COCC1CCN(C(=O)C2CCC(=O)N(C3CCCC3)C2)CC1 (stereo not given),-4%
COc1ccc(C(CNC(=O)c2oc3cc(C)c(Cl)cc3c2C)N2CCCCC2)cc1 (stereo not given),-8%&6%
Cc1ccc(NC(/C=C/N(C)C)=C/C(=O)C(F)(F)F)c(C)c1,-5%
CCCNC(=O)C(Cc1ccc(F)cc1)NC(=O)c1ccc(C#N)cc1 (stereo not given),3%
Cc1noc(NC(=O)c2ccccc2C(F)(F)F)c1C#N,7%
CCOc1ccc(C(c2c(C)[nH][nH]c2=O)c2c(C)[nH][nH]c2=O)cc1OCC,-27%
O=C1N=C(N2CCOCC2)S/C1=C/c1ccc(-c2ccc(F)cc2)o1,-5%
CCCn1c(=O)c2sccc2n2c(CCCC(=O)Nc3ccccc3F)nnc12,8%
COc1ccc(-c2noc(CSCC(=O)Nc3ccc(C)cc3Br)n2)cc1OC,7%
Cc1cccc(NC(=O)c2ccc(N3CCOCC3)c([N+](=O)[O-])c2)n1,16%
O=S(=O)(/C=C/c1ccccc1)N1CCN(c2ccc(F)cc2)CC1,11%
COc1ccc(C2=CC(=O)C[C@H](c3ccc(Cl)cc3)C2)cc1,-18%
FC(F)(F)c1nc2cc3nc4ccccc4[nH]c3cc2n1,?
O=S(=O)(NC1CCCCC1N1CCN(c2cccc(Cl)c2)CC1)c1ccccc1 (stereo not given),10%
CC(C)CC(COCc1cccc(Cl)c1)N1CCN(C(=O)c2cccc(C(F)(F)F)c2)CCC1=O (stereo not given),-21%
COc1cc2c(cc1OC)C(c1ccncc1)CC(=O)N2 (stereo not given),-12%
CC(=O)Nc1ccc(S(=O)(=O)NCCC(=O)OCC(=O)NC(C)c2ccc(Cl)cc2)cc1 (stereo not given),-6%
O=C(CN1CCCCCC1)N1c2ccccc2Sc2ccccc21,-3%
COc1cccc(NC(=O)c2cc3ccccc3cc2OC)c1,5%
COc1ccc(NC(=O)c2cc3c(COC(C)=O)cnc(C)c3oc2=Nc2cccc(C(=O)O)c2)c(OC)c1,-14%
COc1ccccc1N1CCN(c2ccc([N+](=O)[O-])cn2)CC1,-8%
O=C1C2ON(c3ccccc3)C(c3ccncc3)C2C(=O)N1c1ccc(Br)cc1 (stereo not given),-11%
CCCc1cc(=O)[nH]c(SCC(=O)Nc2ccc(Cl)c(S(=O)(=O)N3CCOCC3)c2)n1,-7%
O=S1(=O)CCN2C=C(Br)C=C(Br)C2=N1,-6%
Cc1noc(C)c1COC(=O)c1ccc(-c2nc3ccccc3s2)s1,-18%
COc1ccc(Cl)cc1NC(=O)CN(C)C(=O)Cc1ccc2c(c1)CCC2,7%
CC1CC(C)CN(C(=O)COc2cccnc2[N+](=O)[O-])C1 (stereo not given),3%
COc1ccc(-c2nnc(SCCOc3cccc(C)c3)n2N)cc1,-3%
CN(Cc1ccccc1)C(=O)Cn1cccc1C(=O)c1ccccc1,7%
COc1cccc(C(=O)NCCNC(=O)c2ccccn2)c1,-8%
CCOC(=O)c1c(-c2ccccc2)csc1NC(=S)NC(=O)c1ccccc1,-2%
C/C(=N\NC(=O)c1cccc([N+](=O)[O-])c1)c1cccs1,1%
Cc1c(Br)c([N+](=O)[O-])nn1CC(=O)Nc1ccc(C(C)C)cc1,7%
CCCCNC(=O)Nc1cc(C)on1,3%
COc1ccc(CCNC(=O)c2ccc3c(c2)N=C(C)c2ccccc2S3)cc1OC,5%
COc1ccc(S(=O)(=O)N(CC(=O)NCCc2ccccc2)c2ccc(Cl)cc2)cc1,3%
Cc1cccnc1NC1(C(F)(F)F)N=C2SCCN2C1=O (stereo not given),4%

# Continuation:
SMILES,VDR inhibitor
CC(C)c1ccc(OCc2cc(=O)n3c(-c4ccccc4)csc3n2)cc1,-8%
COc1ccccc1C(=O)NC(=O)CSc1nnc(C)s1,-12%
Cc1ccc(-n2c(=S)[nH]c3c(oc4ccccc43)c2=O)cc1C,?
COc1ccccc1N1CCN(C(=O)CNC(=O)c2cn(-c3ccccc3OC)c(=O)c3ccccc23)CC1,13%
Cc1nc(N2CCN(C)CC2)c2c3c(sc2n1)CCCC3,17%
COC(=O)CN1C(=S)N(c2ccc(F)cc2)C(=O)C1CC(=O)Nc1ccc(OC)cc1 (stereo not given),-13%
CCN1C(=O)C(CC(=O)Nc2ccc(OC)cc2)N(CCCN2CCN(c3ccc(F)cc3)CC2)C1=S (stereo not given),11%
CC1=C(C(=O)Nc2ccc(C(=O)NCCC(C)C)cc2)SCCO1,-8%
Cc1ccccc1-c1nc(S(=O)(=O)c2ccc(Br)cc2)c(NCc2cccnc2)o1,12%
COC(=O)CSc1nnc([C@H](CC(C)C)NC(=O)OC(C)(C)C)o1,1%
COc1ccc(CCn2c(C)cc(C(=O)CSc3nnnn3-c3ccccc3)c2C)cc1OC,14%
O=C(COc1ccccc1[N+](=O)[O-])Nc1ccc2oc(=O)ccc2c1,-6%
CCOC(=O)c1c(CN2CCOCC2)n(-c2ccccc2)c2cc(Br)c(O)cc12,7%
CCN(CC)C(=O)Cn1cc(C(=O)C(=O)NCCc2c[nH]c3ccccc23)c2ccccc21,-2%
COCCNC(=O)C1CC(=O)N(C2CCCC2)C1 (stereo not given),9%
CCS(=O)(=O)N1CCN(S(=O)(=O)c2ccc(S(=O)(=O)NC3CC3)cc2)CC1,10%
Cc1cc(C)cc(CSc2nnc(C)c(=O)[nH]2)c1,20%
COc1ccc(N/C(C)=C2/C(=O)C(=O)N(CCO)C2c2ccc(Br)cc2)cc1 (stereo not given),-6%
N/C(=N\OC(=O)c1ccc(Br)cc1)c1cccc([N+](=O)[O-])c1,-6%
O=C(/C=C/Nc1ccccc1C(=O)O)c1cccs1,?

# Rewritten with each value named: entries from further up.
Molecule: CCS(=O)(=O)N1CCN(S(=O)(=O)c2ccc(S(=O)(=O)NC3CC3)cc2)CC1
  VDR inhibitor: 10%

Molecule: NS(=O)(=O)c1ccc(NC(=O)COC(=O)c2ccc([N+](=O)[O-])s2)cc1
  VDR inhibitor: -5%

Molecule: O=C(/C=C/Nc1ccccc1C(=O)O)c1cccs1
  VDR inhibitor: ?

Molecule: COc1ccc(S(=O)(=O)N2CCN(C(=O)c3oc4ccccc4c3C)CC2)cc1
  VDR inhibitor: 3%

# The results go on.
SMILES,VDR inhibitor
CCC(O)C1CCN(Cc2cn(Cc3ccccc3)nc2-c2cc3ccccc3o2)CC1 (stereo not given),-2%
CCCc1[nH]n(-c2ccc([N+](=O)[O-])cc2)c(=O)c1C=NCCc1c[nH]c2ccccc12,-1%
CC1CCCC(C)N1C(=O)Cc1ccccc1 (stereo not given),-2%
Cc1cc(OCC(O)CN2CCN(CCO)CC2)ccc1C(C)C (stereo not given),3%
COc1ccc(CNC(=O)CCS(=O)(=O)c2ccc3c(c2)NC(=O)C(C)S3)cc1 (stereo not given),0%
COc1ccccc1C(=O)Nc1cc(Cl)ccc1O,-15%
CC(CNC(=O)CCc1nnc2ccc(N3CCC4(CC3)OCCO4)nn12)c1ccccc1 (stereo not given),-29%
CCc1cccc(CC)c1NC(=O)C1CCC(CNS(=O)(=O)c2cccc3nsnc23)CC1 (stereo not given),-8%
CC1(C)CC(C)(O)N(Cc2ccccc2)C(=S)N1 (stereo not given),0%
O=[N+]([O-])c1ccccc1N(CC1CO1)S(=O)(=O)c1ccccc1 (stereo not given),13%
COc1ccc(OC)c(CCNC(=O)c2ccc3c(c2)N(Cc2ccc(C)cc2)CCS3)c1,-9%
CC1(C)CC(=O)C2=C(C1)Nc1ccccc1NC2c1ccc([N+](=O)[O-])cc1 (stereo not given),1%
CCOc1ccc(NC(=O)NCCc2c(C)nn(C)c2C)cc1,8%
CCCCN(C)CCCNC(=O)c1ccc(N2CCCC2=O)cc1,-5%
CC(C)CCOP(=O)(c1ccc(N(C)C)cc1)C(O)c1ccc(C(C)C)cc1 (stereo not given),-1%
Cc1ccc(NC(=O)COC(=O)Cn2ccc(C(F)(F)F)n2)cc1Cl,-16%
O=C(/C=C/c1ccccc1)NC(NC(=S)Nc1cc(Cl)ccc1Cl)C(Cl)(Cl)Cl (stereo not given),13%
COc1cc(C2C=C(Nc3ccccc3)C(=O)N2c2ccccc2)ccc1O (stereo not given),-29%
CC(C)(C)N(Cc1ccccc1)C(=O)COC(=O)c1cccc([N+](=O)[O-])c1,-18%
CCc1ccc(NC(=O)C2CCCN2S(=O)(=O)c2ccc3c(c2)CCCC(=O)N3)cc1 (stereo not given),14%
CCOc1ccc(CCNC(=O)c2cccc(-n3c(C)nc4cccnc43)c2)cc1,3%

# High-throughput results as filed in PubChem BioAssay.
